# TRPML1 blocker = blocks the human TRPML1 channel; TRPML1-inducible cells, Ca2+ dye fluorescence, FDSS; active compounds read low; inhibition of EC80 agonist-evoked calcium signal; activity change, negative = inhibition, % (test concentration not listed); 390,000 compounds, 0.02% hits; AID 624415; in the data active means activity change below about -50%; inconclusive means about -30% to -50%; inactive means above about -30%;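 also: stimulus is agonist 54-4 at its EC80 concentration; % is scaled to controls: 0 for no effect and ±100 for the full control effect; compound concentration not given in the record; the text of the record puts the active cut at -80%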
# Target sequence (Q9GZU1 whole entry, looked up): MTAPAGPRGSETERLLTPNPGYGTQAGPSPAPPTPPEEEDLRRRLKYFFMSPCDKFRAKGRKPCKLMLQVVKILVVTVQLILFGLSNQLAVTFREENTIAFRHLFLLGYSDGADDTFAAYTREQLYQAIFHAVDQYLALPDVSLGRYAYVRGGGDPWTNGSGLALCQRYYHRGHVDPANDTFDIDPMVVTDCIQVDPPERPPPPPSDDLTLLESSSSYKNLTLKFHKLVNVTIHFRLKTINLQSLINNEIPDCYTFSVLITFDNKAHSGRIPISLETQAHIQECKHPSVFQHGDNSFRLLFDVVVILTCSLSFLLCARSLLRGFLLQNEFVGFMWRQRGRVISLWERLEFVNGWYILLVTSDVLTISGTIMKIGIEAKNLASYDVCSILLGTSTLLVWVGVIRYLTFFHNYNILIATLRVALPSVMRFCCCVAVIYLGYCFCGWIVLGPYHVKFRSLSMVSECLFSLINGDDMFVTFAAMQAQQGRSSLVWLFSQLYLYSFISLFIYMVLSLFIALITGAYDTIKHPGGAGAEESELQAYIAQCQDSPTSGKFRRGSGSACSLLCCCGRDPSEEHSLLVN
#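 TRPML1-DL cells, Tet-induced overnight (~16 h, 37 °C) at 1,500 cells/well, were loaded with Ca8 no-wash dye plus quencher for 45-90 min at room temperature. Compounds were pinned during FDSS kinetic reading; agonist 54-4 at EC80 (4 uM final) then added.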
# ClpP mod = qHTS Assay for Activators of ClpP | ATP-dependent Clp protease proteolytic subunit (Bacillus subtilis (strain 168)), P80244 | purified B. subtilis ClpP, FRET peptide cleavage, 20 min | Potency, µM (titrated, usually from 57.5 µM), without a hit: at the highest dose activity change, negative = active | 340,000 compounds, 1.9% hits; active = well fitted falling curve with a large enough effect; inconclusive = small, poorly fitted or top-dose-only effect; inactive = no such curve, though single readings can be large or run the other way; also: potency is read from the fitted curve at half-maximal effect; the source files actives as falling curves though it sought activators and does not explain the sign; nearly all actives have a fitted effect of over 65% in size; many hits overshoot -100%
# Target sequence (P80244 whole entry, looked up): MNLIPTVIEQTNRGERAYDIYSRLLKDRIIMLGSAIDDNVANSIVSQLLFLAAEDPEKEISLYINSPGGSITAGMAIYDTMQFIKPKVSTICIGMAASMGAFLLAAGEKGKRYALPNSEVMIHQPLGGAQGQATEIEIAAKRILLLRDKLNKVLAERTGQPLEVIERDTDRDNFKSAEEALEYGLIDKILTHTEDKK
#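 Buffer: 100 mM Tris/HCl pH8, 100 mM KCl, 0.05% low protease BSA, 2.5% glycerol, 0.01% Tween-20. ClpP 10 microg/mL final; 20 min RT; delta FRET normalized to ADEP and DMSO controls.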
# gsp ag = agonists of gsp mutant (McCune-Albright syndrome). gsp mutant cells, cAMP HTRF, 30 min; control for the full effect not named in the record. Potency, µM (series often up to 76.9 µM), inactives show at the top dose activation (cAMP increase), usual class: activators. 340,000 compounds, 0.13% hits; active = well fitted activation curve with a large enough effect; inconclusive = small, poorly fitted or top-dose-only effect, or another doubt; inactive = no such curve, though single readings can be large or run the other way; cell line not stated here;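 also: phosphodiesterase inhibitor Ro 20-1724 added with compounds to block cAMP breakdown; potency is read from the fitted curve at half-maximal effect; nearly all actives have a fitted effect of over 60% in size; about a fifth of the inactives were tested at one dose only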
#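 Cells in DMEM/10% FBS with G418 were pretreated with compounds in DMSO plus […] (300 uM stock) for 30 min at 37C. cAMP was measured by HTRF (cAMP-d2 plus anti-cAMP antibody-K) after 30 min at room temperature.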
# gsp antagonist = antagonists of gsp mutant (McCune-Albright syndrome) | gsp-mutant cells, cAMP HTRF, 30 min; control for the full effect not named in the record | Potency, µM (titrated, usually from 76.9 µM), for inactives: at the highest dose activity change, negative = inhibition, actives largely listed as inhibitors | 340,000 compounds, 0.4% hits | AID 624288; active = falling curve of any shape with a large fitted effect; inconclusive = falling curve, mostly with a smaller effect; inactive = flat or rising curve; cell line not stated here;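 also: intracellular cAMP measured with PDE inhibitor Ro 20-1724 present during compound exposure; potency is read from the fitted curve at half-maximal effect; % is scaled to controls: 0 for no effect and ±100 for the full control effect; nearly all actives have a fitted effect of over 65% in size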
#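 HTRF cAMP measurement after 30 min RT detection following 30 min, 37C compound treatment alongside […] (added as 300 uM solution) in G418-selected cells seeded at 2000/well and grown 16–24 h.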
# TRPML1 agonist = agonists of human TRPML1 channel; TRPML1-expressing cells, Ca2+ dye fluorescence, FDSS; host cell line not named in the record; reference of the full effect not given here; activation, % (concentration not given with the values); 410,000 compounds, 0.12% hits; AID 624414; in the data active = activation above about 50%; inconclusive = about 30% to 50%; inactive = below about 30%; also: 0% is about no effect; the text of the record puts the active cut at 80%
#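 TRPML1-DL cells, Tet-induced overnight (~16 h, 37 degrees C), loaded 45-90 min at room temperature with Ca8 no-wash calcium dye plus quencher. FDSS fluorescence: 10 s baseline, compound pin-transfer, 110 s agonist read, then EC80 54-4 (4uM final) and 110 s antagonist read.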
# Menin MLL FP FL = displaces fluorescein MLL peptide from human menin. Fluorescence polarization, fluorescein-MLL peptide displacement from menin. FP activity change, % at 61.4 µM. 290,000 tested, under 10 active; inconclusive = falling polarisation curve, or a change in total fluorescence; inactive = total fluorescence flat and polarisation flat or rising; no compound was filed as active; the % refers to the polarisation; negative = inhibition;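 also: % of control where 0% means no effect; inhibitors lower the polarisation; unlabelled MLL peptide was the positive control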
# * = called active by the depositor; ? = inconclusive; · = no result given; & = joins results of further samples; [ ] = dose if it differs, or a comment.
SMILES,TRPML1 blocker,ClpP mod,gsp ag,gsp antagonist,TRPML1 agonist,Menin MLL FP FL
COc1ccccc1C1C=C(c2ccc(Cl)cc2)Nc2nc(-c3ccc(Cl)cc3)nn21 (configuration not stated),17,-8.4%,·,·,7.3,·
Cc1ccc2nc(SCC(=O)Nc3nnc(SCC(N)=O)s3)[nH]c2c1,-24,-1.3%,-46%[inhibitor],-11%,1.6,-0.5
CCc1nnc(NC(=O)C2CCN(C(=O)NC3CCCCC3)CC2)s1,2,0.6%,4%[15.4 µM],3%,1.0,4.9
N#CCC(=O)c1sccc1-n1cccc1,0,·,12%[15.4 µM],·,2.9,?
CCOC(=O)N1CCC(N2C(=O)c3ccc(C(=O)Nc4ccc(OC)cc4)cc3C2=O)CC1,9,1.2%,-61%[inhibitor],-3%,-0.7,·
CCCn1nnnc1NCc1ccccc1OCC,-1,·,4%,5%,2.4,0.1
CCCn1nc(NS(=O)(=O)c2ccccc2)c2cc3cc(C)ccc3nc21,-5,-2.1%,-16%,-2%,1.9,30[activator]
CCOC(=O)c1c(C)[nH]c(C(=O)CSc2nc3ccccc3o2)c1C,11,-2.6%,-2%,8%,3.1,4.3
Cc1nn(S(=O)(=O)c2ccc(C(C)(C)C)cc2)c(C)c1S(=O)(=O)N1CCC(C)CC1,21,2.0%,·,·,0.2,·
O=C(c1ccncc1)c1ccc(N2CCN(C3CC(=O)N(Cc4ccccc4)C3=O)CC2)cc1 (configuration not stated),1,-2.4%,3%,-2%[15.4 µM],0.2,5.9
CN(C)c1ccc(NC(=S)N(CCc2ccccc2)C2CC(=O)N(c3c(Cl)cccc3Cl)C2=O)cc1 (configuration not stated),16,0.1%,-35%,19%,-0.9,-1.1
CC(C)CC1NC2(C(=O)N(C)c3ccccc32)C2C(=O)N(C(C)C)C(=O)C12 (configuration not stated),1,0.9%,-20%,9%,-1.1,0.4
O=S(=O)(Nc1cccnc1Cl)c1ccc2c(c1)OCCO2,7,1.5%,-21%,-2%,0.5,6.6
CCCCn1c(SCC(=O)NC2CCS(=O)(=O)C2)nc2cc(S(N)(=O)=O)ccc21 (configuration not stated),-6,·,25%,-2%,0.5,1.3
Cn1nc(C(F)(F)F)c(/C=N/OC(=O)c2ccccc2)c1SCc1ccccc1Cl,-11,-2.0%,-49%[inhibitor],3%,0.4,2.5
Cc1c(C(=O)N2CCC2(C)C(=O)O)oc2ccccc12 (configuration not stated),-1,1.5%,·,·,-0.3,·
CC(NC(=O)c1ccco1)C(=O)N1CC=C(c2ccccc2)CC1 (configuration not stated),37,-3.3%,34%,5%,-0.2,·
COCCn1c(=O)[nH]c(=O)c2cc(C(=O)c3cc(Cl)ccc3O)cnc21,-15,·,-2%[15.4 µM],-10%,1.8,3.3
O=C(Nc1ccccc1)N(c1ccccc1)C1C=CS(=O)(=O)C1 (configuration not stated),-7,-1.4%,3%[15.4 µM],5%,0.4,-1.9
CCOC(=O)c1c(C)[nH]c(C=O)c1Cc1cccc(Cl)c1,12,2.8%,1%,-1%,2.1,?
CCC(C)NC(=O)c1ccccc1NC(=O)CN1C(=O)c2cccc3cccc1c23 (configuration not stated),-7,-1.8%,·,·,1.3,·
CC(C)CN(C(=O)COC(=O)c1ccc2c(c1)OCCO2)c1c(N)n(Cc2ccccc2)c(=O)[nH]c1=O,0,-3.2%,?,-3%,1.3,·
Cc1ccc2[nH]c3c(=O)n(CC(=O)N(C)c4cc(Cl)ccc4C)ncc3c2c1,4,?,·,·,2.9,·
Cc1ccc(OCC(=O)Nc2ccc(S(=O)(=O)Nc3cc(C)on3)cc2)c(Br)c1,0,-0.5%,·,·,1.4,·
Brc1ccc(CN2CC[C@H]3C=CCc4cccc(c43)C2)cc1,9,0.4%&-5.6%,·,-2%,-0.4&-0.1,·

# Further structures follow:
SMILES,TRPML1 blocker,ClpP mod,gsp ag,gsp antagonist,TRPML1 agonist,Menin MLL FP FL
O=C(CSc1nnc(Cc2ccccc2)o1)Nc1cccc(F)c1,-6,5.0%,-2%,2%,0.6,·
Cc1nc2nc(NC(=O)c3ccccc3F)[nH]n2c(=O)c1Cl,4,-0.6%,·,·,0.0,·
CCCC(=O)Nc1ccc(OCC(=O)OC)cc1,-3,2.4%,0%,-1%,-0.3,5.2
COc1ccc(CNC(=O)C2CCN(S(=O)(=O)N3CCCC3)CC2)c(OC)c1,-3,0.2%,?,4%,0.0,-7.0
S=C(NCCc1ccccc1)N/N=C/c1cccs1,-10,-1.3%,-18%,13%,0.0,·
O=C(CSc1ccncc1)Nc1ccc2ccccc2c1,2,·,-12%[15.4 µM],-17%,-0.2,-4.9
Cc1ccc(C)c(N2CN(Cc3cccnc3)CNC2=S)c1,-7,42%,0%,-1%,0.7,-0.1
CCN1CCC(N(Cc2cccc(OC)c2)C(=O)Nc2ccc(C)cc2Cl)CC1,-3,-1.5%,·,·,0.4,·
CN(C)c1ccc(C2CC(c3cccc(NS(C)(=O)=O)c3)=NN2C(=O)c2ccccc2)cc1 (configuration not stated),2,·,15%[15.4 µM],-20%,0.7,?
COc1ccc(OC)c(Nc2nc(N(C)c3ccccc3)nc(N)c2[N+](=O)[O-])c1,0,-1.1%,-3%,-7%,0.3,4.6
CCOC(=O)C(C(=O)OCC)C1N=C(N)N=C2Oc3ccccc3N21 (configuration not stated),-18,25µM*,-2%,-13%,-0.5,-0.2
Cc1cccc(N2CCN(C(=O)CCn3c(=O)c4cccn4c4cccnc43)CC2C)c1 (configuration not stated),-7,-6.9%,·,·,0.6,·
COc1ccccc1N(CCC#N)C(=O)COC(=O)CCC(=O)c1ccc(F)cc1,-11,-1.6%,11%,-2%,-0.4,·
CC(C)CCNC(=S)NC1CCCC1,4,1.6%,-22%,6%,-0.1,3.2
Cc1ccccc1Cn1c2ccccc2c2cn[nH]c(=O)c21,36,?,-3%,-20%,3.7,0.0
Cc1nccn1CCCN1C(=O)OC2(CCCCC2)C1(C)O (configuration not stated),15,-1.6%,-17%,9%,-0.6,2.5
O=C(Nc1ccccc1OC(F)F)c1ccc(Br)o1,-16,-6.0%,3%,-4%,0.3,2.2
O=C(Nc1ccc2nc(SCC(=O)N3CCOCC3)sc2c1)c1ccc(F)cc1,6,319%,·,·,2.3,·
O=C(Nc1ccc(Cl)cc1)c1cc(S(=O)(=O)N2CCCCC2)ccc1N1CCOCC1,5,-3.2%,-38%,·,-1.0,·
COc1ccccc1N1CCN(C(=O)c2ccc(Cl)c(S(=O)(=O)N3CCCC3)c2)CC1,-18,-1.5%,-4%[15.4 µM],-12%,0.8,-0.4
CCCN1CCC(NC(=O)C2CCN(C(C)=O)CC2)CC1,9,1.2%,-2%[15.4 µM],-10%,-0.1,1.9
CCc1nnc(NC(=O)CSc2nc(-c3ccccc3)nc3ccccc23)s1,25,1.5%,7.9µM*,19%,-0.3,0.2
CNc1nc(SC)nc(N(C#N)CC(=O)OC)n1,-12,-3.8%,-4%,11%,-0.3,4.1
COC(=O)c1ccc(C(=O)Nc2ccc(-c3nc4cc(NC(=O)c5ccc(C(=O)OC)cc5)ccc4o3)cc2)cc1,-6,-5.1%,·,·,0.3,·
CSc1ncc2c(n1)-c1cc(C)ccc1SC2,-9,-1.0%,-41%[inhibitor],-7%,1.2,4.1

# (further entries)
SMILES,TRPML1 blocker,ClpP mod,gsp ag,gsp antagonist,TRPML1 agonist,Menin MLL FP FL
O=C(COc1ccc(Br)cc1Cl)NC(=S)N1CCc2ccccc21,-2,·,-7%,-8%,0.2,2.2
CCSc1ccccc1C(=O)NCCCn1ccnc1,35,1.6%,-24%,16%,4.1,8.1
N#Cc1ccccc1N/C=C/C(=O)c1ccc(Cl)cc1,11,·,6%[15.4 µM],-6%,1.5,·
O=C(COC(=O)/C=C/c1ccc(S(=O)(=O)N2CCOCC2)cc1)NCc1ccc2c(c1)OCO2,22,·,-16%[15.4 µM],-3%,3.2,-3.7
CNc1c(NS(=O)(=O)c2cc(Cl)ccc2OC)c(=O)oc2ccccc12,34,·,-4%,-17%,0.0,-2.6
CCOc1ccc(N(CC)S(=O)(=O)c2cc(Br)cc3c2N(C(C)=O)C(C)C3)cc1 (configuration not stated),73,-0.3%,·,·,-0.6,·
COc1ccc(C(=O)Nc2ccccc2)cc1S(=O)(=O)NCc1ccco1,1,·,-41%[inhibitor],-2%,0.5,-4.1
Cc1onc(-c2c(Cl)cccc2Cl)c1C(=O)N=C(N)N1CCCC1,-5,·,30%,-20%,-0.1,1.8
N#CCCN(C(=O)COC(=O)c1ccc2ccccc2n1)c1ccccc1,27,-11%,16%,2%,-0.4,·
CCOC(=O)Nc1ccc2c(c1)N(C(=O)N1CCN(C)CC1)c1ccccc1S2,0,1.6%,0%,10%,1.1,2.9
O=C(O)CN1CCN(Cc2cccc(Cl)c2)C1=O,2,·,-1%[15.4 µM],11%,0.3,0.0
COC(=O)C1C=CC(OC2OC(COC(C)=O)C(OC(C)=O)C(OC(C)=O)C2OC(C)=O)n2c(=O)n(-c3ccccc3)c(=O)n21 (configuration not stated),-7,-8.5%,2%,-11%,0.5,·
Cc1ccc(NC(=O)C(=O)NN)cc1,?,-0.1%,1%,12%,0.8,6.8
O=C(Cc1ccc(-c2ccccc2)cc1)NC1CCCC1,11,·,5%[15.4 µM],13%,0.9,-2.2
Cn1c(SCC(=O)NC2CCCCC2)nc2c(c1=O)SCC2,6,1.9%,-30%,·,-0.2,·
COc1ccc(N(CC(=O)N2CCOCC2)S(C)(=O)=O)c(OC)c1,-11,-2.1%,-10%[15.4 µM],5%,-0.1,3.1
N#CCCN(C(=O)COC(=O)CNC(=O)c1cccs1)c1ccc(F)cc1,15,-3.4%,-6%,5%,0.2,·
CC(C)(CNC(=O)c1ccc(S(=O)(=O)Nc2cccc(C(F)(F)F)c2)cc1)N1CCOCC1,-11,1.8%,-2%,-11%,1.9,·
O=C(CSc1nnnn1Cc1ccccc1)NCC(=O)c1ccccc1,-6,-3.9%,-25%,2%,0.1,3.3
Cc1sc(-n2c(C)cc(/C=N/n3cnnc3)c2C)c(C#N)c1C,11,-0.2%,12%,13%,-0.3,0.3
Cc1ccc(S(=O)(=O)C(CNC(=O)C(=O)NCc2ccccc2C)c2cccs2)cc1 (configuration not stated),9,-2.4%,·,·,2.1,·
COc1cccc(N2CCN(C(=O)CN(c3ccc(C)cc3)S(=O)(=O)c3c(C)n[nH]c3C)CC2)c1,6,3.4%,-30%,-17%,0.7,6.3
S=C(Nc1ccc(Cl)cc1Cl)NC1CCCCC1,1,-1.1%,10%,-5%,0.8,-5.3

# Screening results as filed in PubChem.
